Source: PubChem BioAssay (National Center for Advancing Translational Sciences (NCATS))
Rango complex inh: Rango-importin beta binding inhibition; Rango CFP/YFP FRET sensor + importin beta, 45 min; AID 540263; Q14974; Potency, µM (top dose mostly 92.2 µM), for inactives: at the highest dose inhibition of complex formation; 0.031% of 340,000 active; active = rising FRET ratio curve, often small or poorly fitted; inconclusive = mostly compound fluorescence or quenching in the first reads; inactive = flat curves in all reads;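 note: potency is the fitted concentration of half-maximal effect; 0% = DMSO wells and 100% = buffer wells lacking importin beta; nearly all actives have a fitted effect of over 15% in size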
Target sequence (Q14974 whole entry, looked up): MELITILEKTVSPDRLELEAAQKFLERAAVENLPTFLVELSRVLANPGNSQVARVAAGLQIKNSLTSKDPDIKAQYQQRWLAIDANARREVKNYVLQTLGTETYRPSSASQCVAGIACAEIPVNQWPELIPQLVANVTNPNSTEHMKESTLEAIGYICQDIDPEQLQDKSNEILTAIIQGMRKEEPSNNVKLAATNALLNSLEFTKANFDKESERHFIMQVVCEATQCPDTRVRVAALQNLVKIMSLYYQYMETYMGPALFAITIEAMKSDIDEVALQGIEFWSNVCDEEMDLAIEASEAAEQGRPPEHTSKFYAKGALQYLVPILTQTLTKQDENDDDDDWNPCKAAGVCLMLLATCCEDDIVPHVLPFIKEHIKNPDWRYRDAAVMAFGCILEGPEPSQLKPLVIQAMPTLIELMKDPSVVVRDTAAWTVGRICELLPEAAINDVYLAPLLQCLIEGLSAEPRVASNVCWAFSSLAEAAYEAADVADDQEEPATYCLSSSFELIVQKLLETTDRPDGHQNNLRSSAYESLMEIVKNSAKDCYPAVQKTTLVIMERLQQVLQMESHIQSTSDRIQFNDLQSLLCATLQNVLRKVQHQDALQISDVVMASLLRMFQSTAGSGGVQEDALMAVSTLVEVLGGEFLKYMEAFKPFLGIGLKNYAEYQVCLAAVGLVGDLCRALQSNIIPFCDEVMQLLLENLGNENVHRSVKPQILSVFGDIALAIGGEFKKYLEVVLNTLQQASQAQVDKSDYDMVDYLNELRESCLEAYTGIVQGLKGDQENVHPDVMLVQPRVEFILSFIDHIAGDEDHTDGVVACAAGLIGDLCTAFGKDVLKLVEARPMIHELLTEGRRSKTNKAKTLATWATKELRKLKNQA
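FRET biosensor (snurportin 1 IBB flanked by EYFP and cerulean), 50 nM, with compound 5 min, then 0.125 microM importin beta in PBS, 1 mM DTT, 0.02% Tween-20, 0.1% BSA. CFP/YFP ratio read after 45 min at room temperature; pre-read flags interference.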
GLA inh pH 4.5: blocks human alpha-galactosidase A at pH 4.5; P06280; purified enzyme, 4-MU-alpha-Gal fluorescence, pH 4.5; activity change, negative = inhibition, % at 105 µM; 230,000 tested, under 10 active; inconclusive = small, poorly fitted or top-dose-only inhibition, or a rising curve; inactive = flat fitted curve, though single readings scatter; no compound was filed as active;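 note: 0% = full activity with enzyme and -100% = basal without enzyme; dose as in the result columns while the protocol names 77 µM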
Rango release inh: inhibition of RanGTP-driven Rango-importin beta dissociation | O95149+P62826 | Biochemical FRET Rango-importin beta, RanGTP-induced dissociation | Potency, µM (top dose mostly 46.1 µM), for inactives: top-dose activity change, negative = inhibition | 0.071% of 340,000 active | AID 540253; active means falling FRET ratio curve, often poorly fitted, with flat reads before Ran was added; inconclusive means other falling curves, or compound fluorescence or quenching; inactive means flat or rising ratio curve;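 note: potency is the fitted concentration of half-maximal effect; % of control where 0% means no effect; nearly all actives have a fitted effect of over 45% in size; -100% = wells without RanGTP and RCC1; the record marks most hits as doubtful in a second field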
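Rango/importin beta premix (0.1/0.25 uM final), PBS + 1 mM DTT + 0.02% Tween-20 + 0.1% BSA; cpd 5 min RT; FRET pre-read; + RanGTP-RCC1 (0.6 uM Ran, 2 mM GTP, 0.2 uM RCC1); 45 min RT; FRET post-read, ex 430, em 486/530 nm.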
miR-21 reporter: miR-21 reporter, rising signal; HeLa miR-21 FLuc reporter, luciferase, 48 h; Potency, µM (highest dose often 38.3 µM), for the others: at the top dose reporter change, positive = more light; 340,000 tested, under 10 active; AID 2288; active = well fitted rising curve with a large enough effect; inconclusive = small, poorly fitted or top-dose-only effect; inactive = no such curve, though single readings can be large or run the other way;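 note: % of control where 0% means no effect; miR-21 action dims this reporter so a rising signal means less miR-21 action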
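HeLa miR-21-FLuc reporter line, endogenous miR-21; 2000 cells/well in DMEM/10% FBS; compound titration up to ~40uM final, 48 h, 37 degree Celsius; luciferase detection reagent, 15 min lysis, CCD luminescence.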
* marks the source's active call; other numbers are inactive results; ? = inconclusive; nt = not tested or not shown; & = joins results of further samples; [ ] = dose if it differs, or a comment. Some of the compounds tested; the hit share may differ from the screen's.

Start of the data: the first 2 entries, ahead of the listing:
SMILES | Rango complex inh | GLA inh pH 4.5 | Rango release inh | miR-21 reporter
O=C(NCc1ccncc1)Nc1ccc2c(c1)OCO2 | 0.4% | -4 | -2% | -29%
O=C(NN=C1CCCCCCCCCCC1)c1cccnc1 | 2.8% | -4 | 17% | -1%

All compounds of this part, previewed entries included:
SMILES | Rango complex inh | GLA inh pH 4.5 | Rango release inh | miR-21 reporter
O=C(NCc1ccncc1)Nc1ccc2c(c1)OCO2 | 0.4% | -4 | -2% | -29%
O=C(NN=C1CCCCCCCCCCC1)c1cccnc1 | 2.8% | -4 | 17% | -1%
O=C(c1cc(-c2cccnc2)nc2ccccc12)N1CCCc2ccccc21 | 0.2% | 5 | -2% | 25%
CCOC(=O)c1nc(-c2ccc(OC)c(OC)c2)no1 | 0.2% | -3 | 19% | 1%
CC(NS(=O)(=O)c1ccc2c(c1)OCCCO2)C(=O)O (configuration not stated) | 7.5% | -8 | 6% | 0%
O=C(Nc1ccc(S(=O)(=O)N2CCOCC2)cc1)c1ccco1 | 0.3% | -9 | 0% | -9%
Cn1cccc1CC(=O)N/N=C\c1c2ccccc2cc2ccccc12 | ? | 0 | ? | -5%
CC(NC(=O)C(=O)Nc1nccs1)c1ccccc1 (configuration not stated) | -1.7% | 5 | 1% | -1%
O=C1c2cccc3cccc(c23)C(=O)N1CCCCCc1n[nH]c(=S)o1 | 1.8% | 0 | 1% | -23%
COc1ccc(CCNC(=O)Cn2cnc3scc(-c4ccccc4)c3c2=O)cc1OC | 4.1% | -2 | -9% | 2%
COc1ccc2[nH]c(=O)c3c(c2c1)OC(C)(C)C=C3 | 3.1% | 0&0 | -1% | ?
Cc1ccc(-c2c3c(=O)n(C)c(=O)n(C)c3cn2Cc2cccnc2)cc1 | 2.3% | -3 | 9% | -3%
O=C(O)c1ccc(/C=N/Nc2ccc(F)cc2F)cc1 | -2.7% | -4 | -8% | -26%
Nn1c(SCC(=O)NC2CCCCC2)nnc1-c1ccccc1 | 0.2% | 2 | 17% | 2%
Cn1cc([N+](=O)[O-])c(C(=O)Nc2ccc3nc(-c4ccccc4)[nH]c3c2)n1 | ? | -1 | -3% | -72%
CCOc1ccc(S(=O)(=O)NCCC(=O)NCCOc2ccccc2OC)cc1 | -0.2% | nt | 3% | nt
CCCn1c(N)c(C(=O)CSc2nc3ncc(Cl)cc3[nH]2)c(=O)n(C)c1=O | 1.3% | nt | 14% | nt
CCCCn1c(N)c(N(CC)C(=O)c2cccc(OC)c2)c(=O)[nH]c1=O | 8.2% | 13 | 1% | 1%
COc1ccc(C/C(O)=C(\C#N)c2nc3ccccc3s2)cc1 | 3.1% | -3 | -17% | 1%
Cc1cccc(OCC(=O)Nc2ccc(S(=O)(=O)N3CCCC3)cc2)c1 | -0.6% | -2 | 7% | 2%
O=C(NCC(=O)N1CCC(Cc2ccccc2)CC1)c1ccc(Cl)cc1 | -3.8% | nt | -5% | 9%
Cc1ccccc1OCC(=O)Nc1nnc(S(=O)(=O)N2CCCC2)s1 | -1.1% | nt | -10% | -2%&-58%
CS(=O)(=O)N1CCC(Oc2ccccc2C(=O)N2CCCCC2CO)CC1 (configuration not stated) | -0.6% | 0 | -4% | 3%
Cc1nn(-c2ccccc2)c2sc(C(=O)N3CCCCC3)cc12 | 1.3% | 4 | 2% | -25%
O=C(CCCCCN1C(=O)c2ccccc2C1=O)Nc1ccc2c(c1)OCCO2 | -1.1% | 6 | 1% | -5%
COc1cc(NC(=O)CN2CCCCC2C)c(C)cc1[N+](=O)[O-] (configuration not stated) | 3.3% | 4 | 9% | -9%
CC(C)(C)c1csc(Sc2ccc([N+](=O)[O-])cn2)n1 | 0.2% | 2 | -16% | ?
Cc1cc(NC(c2cccnc2)c2ccc3cccnc3c2O)no1 (configuration not stated) | -2.1% | -3 | 0% | ?
O=C(CCNS(=O)(=O)c1cccc2nsnc12)NCc1ccco1 | 5.4% | -5[21.1 µM] | -1% | 1%
Cc1ccc2[nH]c(=O)c(CN(C)C(=O)c3ccccn3)cc2c1 | 4.0% | -7 | -6% | -5%
Cc1ccc(N2CC(C(=O)Nc3cc(C(F)(F)F)ccc3N3CCCC3)CC2=O)cc1 (configuration not stated) | ? | nt | 3% | nt
CCC(CO)Oc1cc(NCc2ccccc2Cl)c2ncn(C(C)C)c2c1 (configuration not stated) | ? | nt | ? | nt
S=C(NC1CCCCC1)NC1CC2CCC(C1)N2Cc1ccccc1 (configuration not stated) | -1.0% | -1 | 5% | 3%
Cc1nn(C)c(Cl)c1C(=O)NCC(=O)O | -1.1% | 1 | -3% | 2%
O=C(O)c1ccc[nH]c1=S | 3.8% | -1 | 1% | 1%
Cc1[nH]c2ccccc2c1C(c1ccccn1)N1CCCC1 (configuration not stated) | -4.0% | 2 | 13% | -1%
O=C(Nc1nncs1)c1cccc(S(=O)(=O)N2CCc3ccccc32)c1 | 1.6% | 2 | -23% | -7%
CCn1nc(C)cc1C(=O)NC1CC(C)(C)Cc2c1cnn2-c1cccc(F)c1 (configuration not stated) | 1.0% | nt | 8% | 13%
Cc1ccc2nc(-c3ccc(N4C(=O)CC(N5CCCC(C)C5)C4=O)cc3)sc2c1 (configuration not stated) | nt | 8 | nt | -44%
O=C(COC(=O)c1ccco1)NC1CCCC1 | 0.3% | nt | -20% | 3%
Cc1cccc(N2CCN(CCNC(=O)c3cc4c(s3)CS(=O)(=O)C4)CC2)c1C | 8.9% | 5 | 13% | 7%
O=C(O)c1cc2ccc3cccc4ccc(c1)c2c34 | 0.3% | nt | 0% | -8%
O=S(=O)(NCc1ccco1)N1CCCCCC1 | 0.8% | 4 | 2% | -6%
O=C(CCC(=O)c1ccc(Cl)cc1)OCn1nnc2ccccc2c1=O | 2.4% | nt | -3% | nt
CC(=O)NC(CC(=O)OCC(=O)c1c(N)n(CC(C)C)c(=O)n(C)c1=O)c1ccccc1 (configuration not stated) | 6.8% | nt | -12% | nt
O=C1COc2ccc(C(=O)COC(=O)CNC(=O)C3CCCCC3)cc2N1 | 3.3% | -7 | -4% | 3%
CN1C(=O)C2(OCC(COc3ccc(Cl)cc3)O2)c2ccccc21 (configuration not stated) | 1.1% | -13 | -11% | -1%
CN1CCC(=NNC(=O)CN(c2ccccc2)S(=O)(=O)c2ccccc2)CC1 | 1.7% | nt | 7% | -2%
O=C(CN1C(=O)CSc2ccc(S(=O)(=O)N3CCOCC3)cc21)NCc1cccnc1 | 0.7% | -25 | -10% | 2%
CCCC(=O)Nc1ccc(Cc2ccc(NC(=O)CCC)c(C(=O)O)c2)cc1C(=O)O | -0.3% | -16 | -11% | 0%
COc1ccc(S(=O)(=O)Nc2ccc(N3CCOCC3)cc2)cc1Br | 3.2% | 15 | -7% | -2%
COc1ccccc1N1CCN(c2ccc(-c3ccccc3)nn2)CC1 | -0.3% | -14 | 1% | -2%
O=C(c1cc2sccc2n1Cc1ccccc1)N1CCCc2ccccc21 | -0.3% | -3 | -3% | -16%
COc1ccc(C2N(C(=O)C(F)(F)F)C(C)CN2S(=O)(=O)c2ccc(C)cc2)cc1 (configuration not stated) | 1.0% | nt | 3% | 4%
CCOC(=O)c1c(C)[nH]c(C)c1C(=O)CSc1nc(N)cc(=O)[nH]1 | 3.4% | 7 | -13% | 1%
Cc1cc(C)cc(N)c1 | -0.6% | nt | -8% | nt
O=C(O)c1cc(O)ccc1NC(=O)C1CCCO1 (configuration not stated) | -0.3% | nt | 6% | -2%
Cc1c(NC(=O)c2c(F)cccc2F)c(=O)n(-c2ccccc2)n1C | -2.3% | 0 | -3% | -1%
Cc1cc(C)cc(NC(=O)COC(=O)COc2ccc(N(C)S(=O)(=O)c3cccs3)cc2)c1 | 0.0% | nt | 0% | nt
CS/C(=N\S(=O)(=O)c1cccs1)NC(=O)CSc1nc2ccccc2s1 | ? | -13 | -4%&-9% | -6%

Fetched one by one from the list above, 3 records:
SMILES | Rango complex inh | GLA inh pH 4.5 | Rango release inh | miR-21 reporter
O=S(=O)(NCc1ccco1)N1CCCCCC1 | 0.8% | 4 | 2% | -6%
CCOC(=O)c1c(C)[nH]c(C)c1C(=O)CSc1nc(N)cc(=O)[nH]1 | 3.4% | 7 | -13% | 1%
COc1ccc(C2N(C(=O)C(F)(F)F)C(C)CN2S(=O)(=O)c2ccc(C)cc2)cc1 (configuration not stated) | 1.0% | nt | 3% | 4%

Other results
SMILES | Rango complex inh | GLA inh pH 4.5 | Rango release inh | miR-21 reporter
COc1ccccc1N1CCN(S(=O)(=O)CCNC(=O)C23CC4CC(CC(C4)C2)C3)CC1 | 4.2% | nt | 16% | 23%
Cc1ccc(C2=NN3C(=O)c4ccccc4C3C2)cc1 (configuration not stated) | -0.6% | -2 | -7% | -43%
COc1ccccc1CN(Cc1nc2ccccc2c(=O)[nH]1)C(=O)Nc1ccc(C)cc1 | 7.8% | -1 | 3% | -7%
O=c1c(O)c(-c2ccc(O)c(O)c2)oc2cc(O)ccc12 | ? | -21&-3 | ? | nt
Cc1ccc(S(=O)(=O)N(C)C)cc1NC(=O)COC(=O)/C=C/c1cccs1 | 5.6% | nt | -5% | nt
COc1ccc(C(=O)OCC(=O)c2cc(OC)ccc2OC)c(OC)c1 | -3.2% | -9 | -8% | -31%
COc1ccccc1CNC(=O)c1ccc(S(=O)(=O)N2CCCC2)cc1 | 2.6% | 11 | 8% | -13%
C=C(C)COc1ccc(-c2n[nH]c(C)c2-c2ccccc2OC)c(O)c1 | 1.1% | 0 | -13% | 10%
CCOC(=O)N1CCC(Nc2c(NCCN3CCN(c4cccc(Cl)c4)CC3)c(=O)c2=O)CC1 | -0.1% | -6 | -5% | -3%
COc1ccc([N+](=O)[O-])cc1/C=N/NC(=O)Cc1ccccc1 | -1.7% | 2 | -11% | -2%
O=C(C1CCC(CNc2c(N3CCCCC3)c(=O)c2=O)CC1)N1CCCC1 (configuration not stated) | -0.6% | 1 | -3% | -1%
CCOc1ccccc1-n1c(SCC(=O)Nc2ccc(CC)cc2)nc2n[nH]c(C)c2c1=N | 0.1% | 3 | -8% | -9%
CCc1nc(OCC(=O)c2ccccc2)c(C#N)c2c1COC(C)(C)C2 | 1.7% | -8 | -9% | -2%
Cc1ccc(CSC2=Nc3sccc3C3=NC(=O)CN23)cc1 | ? | -14 | -19% | -19%
CCC(CC)C(=O)Nc1c2c(nn1-c1ccc(OC)cc1)CS(=O)(=O)C2 | 0.2% | -4 | 2% | -6%
COc1ccc(N(CC(=O)N2CCOCC2)S(C)(=O)=O)cc1 | 1.4% | nt | -6% | 0%
CC(=O)OCc1c(C(F)(F)F)nn(C)c1Sc1ccccc1 | -0.4% | -4 | -11% | 1%
CCCCCCCC(=O)Nc1ccc(C(=O)N/N=C/c2cccc([N+](=O)[O-])c2)cc1 | -0.3% | 1 | -8% | -4%
COc1ccc2cc3cc(C(=O)N4CCCC(C)C4)oc3nc2c1 (configuration not stated) | -0.7% | nt | -11% | -66%
CCCC(=O)c1ccc(N2CCCCCC2)c(F)c1 | 0.1% | 0 | -11% | -38%
C=CCc1cc(Cl)ccc1OCCOCCNC(C)CC (configuration not stated) | -0.6% | -4 | -14% | -11%
C1CCc2nc3c(nc2C1)CCCC3 | 1.7% | -12 | -15% | -1%
CCOc1cc(NC(=S)NCC2CCCO2)c(OCC)cc1NC(=O)c1ccc(F)cc1 (configuration not stated) | 0.1% | 5 | 2% | 18%
CCCCn1c(CN(Cc2ccccc2)Cc2ccccc2)nc2c1c(=O)n(C)c(=O)n2C | -0.9% | nt | 12% | nt
O=C(CNCc1ccc(Cl)cc1)N1CCc2ccccc2C1 | -0.1% | nt | 5% | -14%
Nc1nc2ccccc2n1C(=O)CCc1ccccc1 | -0.5% | 2 | 0% | -17%
O=C(O)C1CC(C(=O)O)SS1 (configuration not stated) | 5.4% | nt | 3% | nt
Cc1c(C(=O)N2CCOCC2)oc2ccc(S(=O)(=O)N3CCCCCC3)cc12 | -1.2% | 1 | 0% | -8%
COc1ccc(CCNC(=O)CSc2nc3[nH]ncc3c(=O)n2-c2cccc(C(F)(F)F)c2)cc1OC | 0.7% | 7 | 16% | -8%
Cc1ccc(NC(=O)/C(=C\C=C\c2ccccc2)NC(=O)c2ccccc2)cc1 | 0.3% | -3 | 0% | -9%
